Source: PubChem
StopGo reporter = High Throughput Screening for Foot and Mouth Disease Virus Antivirals | human cells with a luciferase reporter of 2A StopGo recoding; control for the full effect not named in the record | Potency, µM (doses to about 57.9 µM), without a hit: at the highest dose signal change, negative = less light | 1.2% of 410,000 active | AID 1159524, 2015; active = well fitted falling curve with a large enough effect; inconclusive = small, poorly fitted or top-dose-only effect; inactive = no such curve, though single readings can be large or run the other way; tested in HEK293T cells; note: % is set by controls: 0 for no effect and ±100 for the full control effect; nearly all actives have a fitted effect of over 45% in size; luciferase light after 4 h
RE007 growth inh = qHTS Assay for Inhibitors of the HIV-1 protein Vpr. Potency, µM (titrated, usually from 92.2 µM), for the others: at the top dose activity change, negative = less growth. S. pombe RE007 Vpr strain, BacTiter-Glo ATP luminescence, 24 h; control for the full effect not named in the record. AID 651644, 2012. 0.21% of 360,000 active; active = well fitted falling curve with a large enough effect; inconclusive = small, poorly fitted or top-dose-only effect; inactive = no such curve, though single readings can be large or run the other way;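 note: % is set by controls: 0 for no effect and ±100 for the full control effect; nearly all actives have a fitted effect of over 50% in size; the assay follows cell death caused by Vpr and the record does not say whether a fall means rescue or toxicity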
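Fission yeast RE007 carrying one integrated HIV-1 vpr copy, seeded at OD 0.01 in PMG+AL medium with 23 nL pinned compound. Grown 24 h at 30 degrees; viability read by BacTiter-Glo luminescence after 5 min.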
NS1 inh = qHTS Assay for Inhibitors of Influenza NS1 Protein Function | AID 2326, 2010 | Potency, µM (titrated, usually from 46.1 µM), without a hit: at the highest dose activity, positive = more growth | 0.4% of 270,000 active | S. cerevisiae slowed by influenza A NS1, growth recovery by OD600; note: actives are rising curves; nearly all actives have a fitted effect of over 50% in size
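OD600 was taken as the measure of yeast growth restored by compound in an NS1-expressing S. cerevisiae strain. Cells had been washed out of glucose medium and diluted 1:100 into galactose -URA medium, pH 6.0.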
SARS PLP yeast = qHTS of Yeast-based Assay for SARS-CoV PLP; S. cerevisiae expressing SARS-CoV PLpro, growth rescue; control for the full effect not named in the record; Potency, µM (titrated, usually from 32.9 µM), without a hit: at the top dose activity, positive = growth rescue; 0.19% of 330,000 active; AID 485353, 2010; note: 0% is about no effect; nearly all actives have a fitted effect of over 55% in size; growth read by luminescence after 48 h
LASV entry inh = qHTS for Inhibitors of binding or entry into cells for Lassa Virus. Lassa virus pseudotype entry inhibition, cell reporter; control for the full effect not named in the record. Potency, µM (top dose mostly 37.9 µM), without a hit: at the top dose activity change, negative = inhibition, hits mostly inhibitors. 1.2% of 300,000 active. AID 540256, 2011; active means well fitted inhibition curve with a large enough effect; inconclusive means small, poorly fitted or top-dose-only effect, or effect the other way; inactive means flat fitted curve, though single readings scatter; tested in HEK293 cells; note: % is set by controls: 0 for no effect and ±100 for the full control effect; nearly all actives have a fitted effect of over 50% in size; luciferase read-out
Marburg entry inh = qHTS for inhibitors of binding or entry into cells for Marburg Virus; Marburg virus pseudotyped entry inhibition, cell reporter; control for the full effect not named in the record; about a third of the inactives were read at about 46 µM; Potency, µM (series often up to 37.8 µM), for inactives: top-dose activity change, negative = inhibition, usual class: inhibitors; 1.8% of 300,000 active; AID 540276, 2011; active = well fitted inhibition curve with a large enough effect; inconclusive = small, poorly fitted or top-dose-only effect, or effect the other way; inactive = flat fitted curve, though single readings scatter; tested in HEK293 cells; about a fifth of its hits are not listed in these tables; note: % is set by controls: 0 for no effect and ±100 for the full control effect; luciferase read-out
Cruzain noTriton = qHTS Assay for Promiscuous and Specific Inhibitors of Cruzain (without detergent) | purified cruzain, Z-FR-AMC fluorescence, no detergent | Potency, µM, inactives show max response, negative = inhibition, hits mostly inhibitors | 2.3% of 200,000 active; active = well fitted curve in the direction sought with a large enough effect; inconclusive = small, poorly fitted or top-dose-only effect, or another doubt; inactive = no such curve, though single readings can be large; an effect the other way counts as inactive or inconclusive;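 note: plate controls were enzyme without inhibitor for no effect and buffer without enzyme for full effect; nearly all actives have a fitted effect of over 40% in size; top concentration of the series not given in the record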
Target sequence (P25779 123-467 limits assumed): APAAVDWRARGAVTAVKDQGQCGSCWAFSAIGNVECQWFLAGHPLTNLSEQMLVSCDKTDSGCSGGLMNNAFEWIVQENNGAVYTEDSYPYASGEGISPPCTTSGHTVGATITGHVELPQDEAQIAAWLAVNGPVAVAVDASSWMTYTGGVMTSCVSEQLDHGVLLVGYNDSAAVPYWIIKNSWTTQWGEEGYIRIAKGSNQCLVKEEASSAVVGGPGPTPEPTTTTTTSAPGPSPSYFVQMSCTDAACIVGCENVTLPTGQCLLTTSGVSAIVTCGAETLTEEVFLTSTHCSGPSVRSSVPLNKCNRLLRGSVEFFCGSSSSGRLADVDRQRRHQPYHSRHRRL
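Purified cruzain at 1.5 nM, pre-incubated 15 min with compound at room temperature in 100 mM sodium acetate pH 5.5, 5 mM DTT, 0.00005% Triton X-100. Reaction started with 2 uM Z-FR-AMC; AMC fluorescence increase over 60 s gives rate.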
Cruzain Triton = qHTS Assay for Promiscuous and Specific Inhibitors of Cruzain (with detergent). purified cruzain, Z-FR-AMC fluorescence, 0.01% Triton. 0.43% of 200,000 active. Potency, µM, for the others: max response, negative = inhibition, hits mostly inhibitors. AID 1478, 2009. Cruzipain (Trypanosoma cruzi), P25779; active = well fitted curve in the direction sought with a large enough effect; inconclusive = small, poorly fitted or top-dose-only effect, or another doubt; inactive = no such curve, though single readings can be large; an effect the other way counts as inactive or inconclusive;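 note: plate controls were neutral wells for no effect and buffer without enzyme for full effect; nearly all actives have a fitted effect of over 40% in size; top concentration of the series not given in the record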
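Sodium acetate buffer (100 mM, pH 5.5) containing 5 mM DTT and 0.01% Triton X-100 hosted 1.5 nM cruzain and test compound for 15 min at room temperature. Cleavage of 2 uM Z-FR-AMC was then tracked by fluorescence.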
* = called active by the depositor; ? = inconclusive; · = no result given; & = joins results of further samples; [ ] = another dose, or the depositor's remark. Unless noted, calls come from the whole dose curve; as a rule, active means well fitted rising curve with a large enough effect; inconclusive means small, poorly fitted or top-dose-only effect; inactive means no such curve, though single readings can be large or run the other way. Potency is the fitted concentration of half-maximal effect.

Below each compound – StopGo reporter	RE007 growth inh	NS1 inh	SARS PLP yeast	LASV entry inh	Marburg entry inh	Cruzain noTriton	Cruzain Triton
CC(=O)/C=C1\N(C)c2ccc(C)cc2C1(C)C
  -14%	-10%	·	-3%	?	1%[46.1 µM]	·	·
O=c1[nH]c(CN2CCN(C/C=C/c3ccccc3)CC2)nc2ccccc12
  -24%	-2%	4%	-2%	2%	?	-2%	10%
CCOC(CNc1ncnc2c1cnn2C)OCC
  -1%	6%	5%	0%	5%	6%	·	·
Cc1ccc(CCNC(=O)CCn2c(=O)c3cccn3c3ccc(F)cc32)cc1
  7%&-2%	0%	23%	14%	-29%&-5%[46.1 µM]	?	11%	-4.0%
CCc1ccc(N(CC(=O)NC(C)(C)CC)C(=O)CCC(=O)Nc2nccs2)cc1
  10%	-3%	-1%	1%	?	-8%	·	·
O=C(c1ccccc1)c1ccc2nc(Nc3ccccc3Cl)c3nncn3c2c1
  -9%	·	·	·	?	·	-1%	-1.3%
C/C(=N\NC(=O)c1cccnc1)c1ccc(Br)cc1
  7%	-5%	11%	-1%	13%[46.1 µM]	15%[46.1 µM]	·	·
O/N=C1/CCCSc2ccccc21
  9%	2%	?	11%	8%	13%	5%	3.8%
Cc1ccc(-c2[nH]c3c(c2-c2c(-n4cccc4)n(C)c(=O)[nH]c2=O)c(=O)[nH]c(=O)n3C)cc1
  28%	·	·	·	4%[46.1 µM]	7%[46.1 µM]	8%	-2.2%
CCc1ccc(CNC(=O)CCN2C(=O)COc3ccccc32)cc1
  -5%	·	·	·	0%[46.1 µM]	·	-4%	1.0%
O=c1cnnc(NCc2ccccc2)[nH]1
  14%	-3%	4%	4%	-4%	15%[46.1 µM]	-2%	5.6%
COc1ccc(CCNC(=O)NCc2noc3ccc(C)cc23)c(OC)c1
  -8%	·	·	·	-2%[46.1 µM]	·	-19%	-1.3%
COc1cccc2c(=O)cc(C)n(CC(=O)Nc3cccc(C)c3)c12
  ?	-10%	-4%	23%	-30%	-39%	-26%	-3.8%
Cn1c(N2CCCC2)nc2c1c(=O)[nH]c(=O)n2C
  -11%	-6%	?	4%	23%[46.1 µM]	-4%[46.1 µM]	·	·
c1ccc(Oc2c3ccccc3nc3ccccc23)cc1
  -25%	-3%	-87%	-3%	-3%	-28%	·	·

Retrieved one by one from the list above (2):
Below each compound – StopGo reporter	RE007 growth inh	NS1 inh	SARS PLP yeast	LASV entry inh	Marburg entry inh	Cruzain noTriton	Cruzain Triton
CC(=O)/C=C1\N(C)c2ccc(C)cc2C1(C)C
  -14%	-10%	·	-3%	?	1%[46.1 µM]	·	·
Cn1c(N2CCCC2)nc2c1c(=O)[nH]c(=O)n2C
  -11%	-6%	?	4%	23%[46.1 µM]	-4%[46.1 µM]	·	·

Next part
Below each compound – StopGo reporter	RE007 growth inh	NS1 inh	SARS PLP yeast	LASV entry inh	Marburg entry inh	Cruzain noTriton	Cruzain Triton
N#Cc1ccccc1CN1C(=O)S/C(=C/c2cccn2-c2cccc(C(=O)O)c2)C1=O
  -5%	11%	-4%	-2%	-2%	-6%&-6%	?	-18%
O=S(=O)(c1cccc(-c2cn3ccccc3n2)c1)N1CCCC1
  -28%	2%	2%	-1%	?	-9%[46.1 µM]	·	·
OCC1(CCCc2ccccc2)CCN(Cc2cnc(N3CCOCC3)s2)CC1
  ?	-4%	1%	0%	11µM*	?	·	·
CC1CN(c2nc3ccccc3nc2SCC(=O)Nc2ccc(F)cc2)CC(C)O1 (stereo not drawn)
  0%	0%	17%	-3%	·	·	·	·
Cc1ccc(NC(=O)Cn2c(=O)n(Cc3ccco3)c(=O)c3ccccc32)c(C)c1
  -10%&3%	-30%	3%	-3%	1%[46.1 µM]	4%[46.1 µM]	-15%&10%	-1.3%&1.1%
Cn1ccnc1SC(C(=O)O)c1ccccc1 (stereo not drawn)
  -4%	-1%	-9%	3%	·	·	·	·
O=C(NNC(=O)c1cccs1)c1ccc(Cl)cc1
  0%	11%	-5%	-2%	-3%[46.1 µM]	34%	6%	-0.6%
COc1ccc(F)cc1S(=O)(=O)n1cnc2ccccc21
  -9%	0%	3%	-1%	·	·	·	·
CC(=O)C1=C(O)C(=O)N(CCC(=O)O)C1c1ccccc1Cl (stereo not drawn)
  17%	2%	9%	5%	12%	-1%	0%	-3.5%
O=C(NCc1ccccc1)C1CCN(S(=O)(=O)N2CCCCCC2)CC1
  8%	7%	-1%	3%	-21%	5%	7%	-2.0%
CCC(NC(=O)c1oc2ccccc2c1COC)c1ccc(OC)cc1 (stereo not drawn)
  -14%	2%	-13%	0%	?	-11%[46.1 µM]	·	·
Fc1ccccc1-c1n[nH]c(=S)n1/N=C/c1c[nH]c2ccccc12
  -28%	1%	7%	2%	?	1%	·	·
COc1ccc(CCC(=O)NCc2ccc3c(c2)CCN3C(=O)c2ccccc2)cc1
  -17%	·	·	·	9%[46.1 µM]	·	-3%	1.1%
CNC(=O)C(=O)Nc1cc2c3c(c1)CCN3C(=O)CC2
  27%	5%	4%	1%	·	·	·	·
COc1ccc(OC)c(NC(=O)c2cc(-c3ccc(Cl)s3)nc3ccccc23)c1
  -27%	·	·	·	2%[46.1 µM]	1%[46.1 µM]	4%	-0.3%
CCC(=O)Oc1ccc(C2Nc3ccccc3-c3nnc(SC)nc3O2)cc1 (stereo not drawn)
  -23%	·	·	·	-4%[46.1 µM]	-15%[46.1 µM]	-10%	-7.9%
COc1ccc(-c2c(C)[nH]n3c(=O)c(Cc4ccccc4)c(C)nc23)cc1OC
  -4%	16%	·	1%	?	7.9µM*	·	·
CCOc1ccc(CCNC(=O)CCCc2cc(-c3ccc(OCC)cc3)on2)cc1
  4%	·	·	·	-30%[46.1 µM]	?	0%	-0.6%
Cc1[nH]c2ccccc2c1C(=O)CN1CCN(c2ccc(Cl)cc2)CC1
  -18%	-2%	-2%	0%	1%[46.1 µM]	9%[46.1 µM]	·	·
CC1(C)Cc2c(C#N)c(SCC(=O)c3ccccc3)nc(N3CCOCC3)c2CS1
  -12%	1%	29%	3%	18µM*	-29%&-29%	25µM*	2.4%
Cc1nnc(NC(=O)c2ccc(-c3ccc([N+](=O)[O-])cc3)o2)s1
  -22%	-5%	-13%	0%	·	·	·	·
CC(C)(C)Nc1nc(N)nc(Cl)n1
  -16%	-4%	2%	1%	14%[46.1 µM]	16%[46.1 µM]	·	·
Cc1cccc2c(C(=O)n3cccn3)cc(-c3ccccc3Cl)nc12
  -6%	3%	7%	1%	3%	16%	3%	-10%
Cc1cc(C)n(CC(=O)O)c(=O)c1[N+](=O)[O-]
  -15%	18%	·	0%	6%	-3%	·	·
S=C1NC[C@H](CC2CCCCC2)N1CCCCC1CCCCC1
  -15%	-24%	-11%	-1%	·	·	·	·
COc1ccc(OC)c(NC(=O)c2cc(S(=O)(=O)N3CCCC3)cn2C)c1
  0%	14%	8%	-18%	·	·	·	·
O=C(Cc1ccccc1)N1N=C(c2ccncc2)CC1(O)C(F)(F)F (stereo not drawn)
  -8%	-1%	-1%	1%	·	·	·	·
CCOC(=O)CNC(=O)CSc1nnc(-c2ccccc2)c(-c2ccccc2)n1
  -2%	-7%	-3%	-2%	·	2%[46.1 µM]	·	·
COc1ccc(CNC(=O)c2cc(=O)c3ccccc3o2)cc1
  -10%	22%	-2%	5%	·	·	·	·
COc1ccc(N(C(=O)c2cccc(OC)c2OC)C2C=CS(=O)(=O)C2)c(OC)c1 (stereo not drawn)
  -2%	2%	-6%	1%	-1%	-4%	0%	4.8%
CC(=O)Nc1ccc(NS(=O)(=O)c2ccc3c(c2)CCCN3C(C)=O)cc1
  58%[activator]	·	·	·	-3%[46.1 µM]	·	1%	0.0%
O=C(CCN1CCOCC1)Nc1ccc(Cl)cc1
  1%	6%	-23%	1%	·	·	·	·
Cc1cc(NC(=O)CSc2nnnn2-c2ccc(C(C)C)cc2)no1
  -17%	3%	-6%	9%	?	-22%[46.1 µM]	·	·
O=C(CCN1C(=O)c2ccccc2S1(=O)=O)Nc1cccc2ccccc12
  16%	8%	5%	0%	22%	1%[46.1 µM]	·	·
Cc1onc(-c2ccccc2)c1C(=O)N1CCOCC1
  -2%	-1%	8%	1%	7%	12%	-9%	-1.6%
Nn1c(SCc2ccc(F)cc2)nnc1-c1ccccn1
  59%[activator]	25%	0%	0%	?	30%[46.1 µM]	·	·
CCNC(=O)c1c(C)[nH]c(C(=O)OCC)c1C
  -6%	9%	3%	6%	6%	2%	0%	4.1%
CCOc1ccc(OCCn2c(=S)[nH]c3c(N)ncnc32)cc1
  46%[activator]	3%	·	6%	9%[46.1 µM]	-19%[46.1 µM]	·	·

A draw from above in order of formula weight, highest first.
Below each compound – StopGo reporter	RE007 growth inh	NS1 inh	SARS PLP yeast	LASV entry inh	Marburg entry inh	Cruzain noTriton	Cruzain Triton
O=C(CCN1C(=O)c2ccccc2S1(=O)=O)Nc1cccc2ccccc12
  16%	8%	5%	0%	22%	1%[46.1 µM]	·	·
CCOc1ccc(OCCn2c(=S)[nH]c3c(N)ncnc32)cc1
  46%[activator]	3%	·	6%	9%[46.1 µM]	-19%[46.1 µM]	·	·
Nn1c(SCc2ccc(F)cc2)nnc1-c1ccccn1
  59%[activator]	25%	0%	0%	?	30%[46.1 µM]	·	·
O=C(CCN1CCOCC1)Nc1ccc(Cl)cc1
  1%	6%	-23%	1%	·	·	·	·
